Screening data as filed in PubChem.
rRNA inh HTS: inhibits bacterial ribosomal RNA function over humanized ribosomes; E. coli WT GFP vs humanized-ribosome RFP mutants, fluorescence, 24 h; stronger effect = lower value; DMSO median 0, no signal -100; GFP signal change (wild-type ribosome), % (concentration not given with the values); actives 1.6% (n = 350,000);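 active = significant combined selectivity score with lowered wild-type GFP, culture density cut under 30%, mutant RFP and density less affected; inactive = any of these conditions unmet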; note: one replicate is shown; some compounds called inactive have numbers as strong as hits
FGF22 binding: shifts melting point of recombinant human FGF22 | Q9HCT0 | recombinant FGF22 thermal shift, SYPRO orange fluorescence; percent of sucrose octasulfate shift, DMSO zero | calls only at 9.99 µM | actives 1.5% (n = 340,000);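 active = melting point raised past a set limit in the mean and every replicate; three in four hits are not shown here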
Target sequence (Q9HCT0 whole entry, looked up): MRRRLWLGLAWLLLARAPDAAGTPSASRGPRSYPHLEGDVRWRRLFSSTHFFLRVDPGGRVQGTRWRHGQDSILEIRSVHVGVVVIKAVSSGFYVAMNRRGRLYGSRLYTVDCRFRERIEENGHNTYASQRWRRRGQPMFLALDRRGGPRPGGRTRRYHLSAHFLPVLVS
rRNA inh HTS OD600: also measured in rRNA inh HTS; calls as there; OD600 change, %; measured here: OD600 growth;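 optical density of the mix in the first replicate; 0 = DMSO median and -100 = no signal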
rRNA inh HTS RFP: recorded beside rRNA inh HTS, whose call it bears; RFP signal change, %; measured here: RFP humanized mutant strains;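 first replicate; 0 = DMSO median and -100 = no signal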
Active calls of the source: *; i = inactive; & = joins results of further samples.

SMILES	rRNA inh HTS	rRNA inh HTS OD600	rRNA inh HTS RFP	FGF22 binding
C[C@@H]1CN([C@H](C)CO)C(=O)c2cc(NC(=O)Nc3ccc(C(F)(F)F)cc3)ccc2O[C@@H]1CN(C)C(=O)Nc1ccc(C(F)(F)F)cc1	1	-3	2.2	i
CC(C)NC(=O)N(C)C[C@@H]1Oc2cc(C#CCN(C)C)ccc2S(=O)(=O)N([C@H](C)CO)C[C@@H]1C	7	17	-1.2	i
CO[C@@H](CN(C)S(=O)(=O)c1ccccc1)[C@@H](C)CN(Cc1ccccc1Cl)[C@H](C)CO	-5	-37	-0.4	i
CN(C)CC(=O)N[C@H]1CC[C@H](CCNS(=O)(=O)c2ccccc2)O[C@@H]1CO	-1	1	0.5	i
CN1C(=O)c2cc(NC(=O)c3cccc(F)c3)ccc2OC[C@@H]2O[C@@H](CC(=O)NCc3ccccc3Cl)CC[C@H]21	-5	-6	0.5	i
CC(C)C#Cc1ccc([C@H]2[C@@H](C#N)N(C(=O)CN(C)C)[C@@H]2CO)cc1	2	3	-1.0	i
CC(C)CC#Cc1ccc2c(c1)O[C@@H](CN(C)C)[C@@H](C)CN([C@@H](C)CO)S2(=O)=O	1	-4	-0.4	i
COc1ccc2c3c([nH]c2c1)[C@H](CO)N(C(=O)Nc1ccc(F)cc1)CC31CN(S(=O)(=O)c2cccc(F)c2)C1	-1	-1	0.6	i
CC(=O)Nc1ccc2c(c1)C(=O)N(C)[C@@H]1CC[C@H](CC(=O)NCc3ccc(Cl)cc3)O[C@H]1CO2	1	-3	-0.8	i
CN(C)Cc1cn(CC[C@H]2CC[C@@H](NS(=O)(=O)c3ccccc3)[C@@H](CO)O2)nn1	-2	3	-0.2	i
C[C@@H]1CCCCO[C@@H](CN(C)C(=O)Nc2ccc(F)cc2)[C@@H](C)CN([C@@H](C)CO)C(=O)c2cc(NC(=O)CCCN(C)C)ccc2O1	3	5	2.7	i
COc1cc(N2C[C@@]3(O)CC[C@@H](O)[C@@H](OC)[C@@H]3[C@@](C)(O)[C@@H]2CC=C(C)C)cc(OC)c1OC	37	36	5.6	i
CCN(C[C@H]1N[C@H](CO)[C@H]1c1ccccc1)C(=O)c1ccncc1	0	-2	-4.0	i
Cc1ccccc1-c1ccc([C@@H]2[C@@H](CO)N3CCCCN(S(=O)(=O)c4ccc(F)cc4)C[C@@H]23)cc1	2	7	4.8	i
CCCNC(=O)C[C@H]1C[C@@H]2c3cc(NC(=O)NC4CCCCC4)ccc3O[C@@H]2[C@H](CO)O1	0	-3	-0.5	i
C[C@@H]1CN([C@H](C)CO)S(=O)(=O)c2ccc(-c3ccc(F)cc3)cc2O[C@H]1CN(C)C(=O)c1ccccc1F	-10	-23	3.1	i

Brought forward from above: 4 entries; new compounds follow.
SMILES	rRNA inh HTS	rRNA inh HTS OD600	rRNA inh HTS RFP	FGF22 binding
CCN(C[C@H]1N[C@H](CO)[C@H]1c1ccccc1)C(=O)c1ccncc1	0	-2	-4.0	i
Cc1ccccc1-c1ccc([C@@H]2[C@@H](CO)N3CCCCN(S(=O)(=O)c4ccc(F)cc4)C[C@@H]23)cc1	2	7	4.8	i
CCCNC(=O)C[C@H]1C[C@@H]2c3cc(NC(=O)NC4CCCCC4)ccc3O[C@@H]2[C@H](CO)O1	0	-3	-0.5	i
C[C@@H]1CN([C@H](C)CO)S(=O)(=O)c2ccc(-c3ccc(F)cc3)cc2O[C@H]1CN(C)C(=O)c1ccccc1F	-10	-23	3.1	i
C[C@H]1CCCCO[C@H](CN(C)CC2CCCCC2)[C@@H](C)CN([C@@H](C)CO)C(=O)c2cc(NC(=O)Nc3ccccc3)ccc2O1	-8	-24	19	i
Cc1ccc(S(=O)(=O)Nc2ccc3c(c2)CC(=O)N([C@H](C)CO)C[C@@H](C)[C@@H](CN(C)Cc2ccc(-c4ccccc4)cc2)O3)cc1	0	0	-0.3	i
CO[C@@H](CN(C)C(=O)C1CCOCC1)[C@@H](C)CN(C(=O)Nc1ccc(F)cc1)[C@H](C)CO	0	-5	-4.0	i
CCC(=O)N1CCCCN2[C@H](C1)[C@@H](c1ccc(-c3ccc(F)cc3)cc1)[C@@H]2CO	3	0	5.2	i
C/C=C/c1ccc([C@H]2[C@H]3CN(C(=O)Nc4ccc(F)cc4)CCCCN3[C@H]2CO)cc1	2	-40	26	i
CN(C)CC(=O)Nc1ccc2c(c1)[C@H]1C[C@@H](CC(=O)NCc3ccc(Cl)cc3)O[C@H](CO)[C@H]1O2	-2	11	1.2	i
N#Cc1ccc(-c2ccc([C@@H]3[C@@H](CO)N4CCCCN(S(=O)(=O)c5ccccc5)C[C@H]34)cc2)cc1	0	-5	5.7	i
Cc1ccc(S(=O)(=O)N(C)C[C@@H]2Oc3ccc(NS(=O)(=O)c4c(C)noc4C)cc3C(=O)N([C@@H](C)CO)C[C@@H]2C)cc1	5	7	0.5	i
O=C(C[C@H]1CC[C@H]2[C@@H](COC[C@H](O)CN2C(=O)c2ccccc2F)O1)NCc1ccc(Cl)c(Cl)c1	-4	-13	28	i
C[C@@H]1CN([C@@H](C)CO)C(=O)Cc2cc(NC(=O)Cc3ccccc3)ccc2O[C@@H]1CN(C)S(C)(=O)=O	-1	10	-0.7	i
CN1C(=O)c2cc(NC(=O)c3cccc(F)c3)ccc2OC[C@H]2O[C@H](CC(=O)NC3CCC3)CC[C@@H]21	2&2	7&8	0.8&-1.5	i
COc1ccc(S(=O)(=O)Nc2ccc3c(c2)CC(=O)N([C@@H](C)CO)C[C@@H](C)[C@@H](CN(C)Cc2ccc(Cl)c(Cl)c2)O3)cc1	-2	0	-2.0	i
Cc1noc(C)c1S(=O)(=O)Nc1ccc2c(c1)C(=O)N([C@H](C)CO)C[C@@H](C)[C@@H](CN(C)C(=O)C1CCCCC1)OCCCC[C@H](C)O2	1	-4	-0.6	i
COCC(=O)Nc1ccc2c(c1)[C@@H]1C[C@@H](CC(=O)N(C)C)O[C@H](CO)[C@@H]1O2	11	10	6.2	i
CN(C)C(=O)c1cc2c(c(-c3cccc(-c4ccccc4F)c3)n1)[C@H](CCO)N(S(C)(=O)=O)C2	4	9	-4.9	i
C[C@H](CO)N1C[C@H](C)[C@H](CN(C)Cc2ccncc2)Oc2ccc(NC(=O)C3CC3)cc2CC1=O	2	12	-2.2	i

3 compounds already listed, sorted by SMILES length, lowest first.
SMILES	rRNA inh HTS	rRNA inh HTS OD600	rRNA inh HTS RFP	FGF22 binding
CN1C(=O)c2cc(NC(=O)c3cccc(F)c3)ccc2OC[C@H]2O[C@H](CC(=O)NC3CCC3)CC[C@@H]21	2&2	7&8	0.8&-1.5	i
COc1ccc(S(=O)(=O)Nc2ccc3c(c2)CC(=O)N([C@@H](C)CO)C[C@@H](C)[C@@H](CN(C)Cc2ccc(Cl)c(Cl)c2)O3)cc1	-2	0	-2.0	i
Cc1noc(C)c1S(=O)(=O)Nc1ccc2c(c1)C(=O)N([C@H](C)CO)C[C@@H](C)[C@@H](CN(C)C(=O)C1CCCCC1)OCCCC[C@H](C)O2	1	-4	-0.6	i

Further records follow:
SMILES	rRNA inh HTS	rRNA inh HTS OD600	rRNA inh HTS RFP	FGF22 binding
Cc1noc(C)c1NC(=O)Nc1ccc2c(c1)C(=O)N([C@H](C)CO)C[C@H](C)[C@H](CN(C)Cc1ccc3c(c1)OCO3)OCCCC[C@H](C)O2	1	2	0.4	i
C[C@H](CO)N1C[C@H](C)[C@@H](CN(C)Cc2ccc(Oc3ccccc3)cc2)Oc2ccc(NC(=O)Cc3ccccc3)cc2C1=O	5	0	1.2	i
COc1cccc(NC(=O)N2C[C@@H](O)COC[C@H]3O[C@H](CC(=O)NC4Cc5ccccc5C4)CC[C@@H]32)c1	-5	-5	-3.9	i
COc1cccc(NC(=O)N(C)C[C@@H]2Oc3ncc(/C=C/c4ccccc4)cc3C(=O)N([C@@H](C)CO)C[C@@H]2C)c1	-14	-9	5.5	i
C[C@@H]1CN([C@@H](C)CO)S(=O)(=O)c2ccc(C#CC3CCCC3)cc2O[C@@H]1CN(C)C(=O)C1CC1	-7	-37	23	i
CCCNC(=O)N1C[C@@H](O)COC[C@H]2O[C@@H](CC(=O)NCCCN3CCOCC3)CC[C@@H]21	7	13	3.0	i
C[C@H](CO)N1C[C@H](C)[C@@H](CN(C)C)Oc2cc(C#CC(C)(C)O)ccc2S1(=O)=O	1	2	-3.8	i
Cc1ccc(S(=O)(=O)N(C)C[C@H]2Oc3c(NC(=O)c4nc5ccccc5s4)cccc3C(=O)N([C@@H](C)CO)C[C@H]2C)cc1	3	8	-1.2	i
CNC[C@H]1Oc2c(NC(=O)NC(C)C)cccc2C(=O)N([C@H](C)CO)C[C@@H]1C	2	12	0.0	i
CN(C)CC(=O)N1C[C@@H]2N[C@H](C1)C2c1ccc(/C=C/c2ccccc2)cc1 (stereo partly drawn)	-2&4	14&7	-1.0&1.0	i
O=C(C[C@H]1CC[C@H](NC(=O)C2CCOCC2)[C@@H](CO)O1)Nc1ccc(-c2ccccc2)cc1	-4	-1	-0.3	i
COc1cccc(CNS(=O)(=O)c2ccccc2Br)c1	2	-1	-1.0	i
COc1ccc(NC(=O)N[C@@H]2CC[C@H](CCNC(=O)Cc3ccncc3)O[C@H]2CO)cc1	7	4	1.9	i
C[C@@H]1CN([C@H](C)CO)C(=O)c2cccc(NS(=O)(=O)c3cn(C)cn3)c2O[C@@H]1CN(C)S(=O)(=O)c1ccccc1	4	6	-2.9	i
C[C@@H]1CN([C@H](C)CO)C(=O)c2cc(-c3ccc(C#N)cc3)cnc2O[C@@H]1CN(C)C(=O)CN(C)C	-1	3	0.2	i
C[C@@H]1CN([C@H](C)CO)C(=O)CCCn2nncc2CO[C@@H]1CN(C)Cc1ccc(C(=O)Nc2ccccc2N)cc1	0	-3	0.0	i
C[C@H](CO)N1C[C@H](C)[C@@H](CN(C)Cc2ccncc2)Oc2ncc(-c3cccc(C#N)c3)cc2C1=O	0	4	-2.7	i
C[C@H](CO)N1C[C@H](C)[C@H](CN(C)S(=O)(=O)c2cccs2)Oc2c(NC(=O)Nc3cccc4ccccc34)cccc2C1=O	-2	0	0.0	i
C[C@H]1CN([C@@H](C)CO)S(=O)(=O)c2ccc(-c3cccc(F)c3)cc2O[C@H]1CN(C)S(C)(=O)=O	-8	-10	0.8	i
COC(=O)C[C@H]1CC[C@@H](NS(=O)(=O)c2ccccc2F)[C@H](CO)O1	4	2	0.6	i
COc1ccc(NC(=O)N(C)C[C@H]2Oc3ccc(NS(=O)(=O)c4ccc(F)cc4)cc3C(=O)N([C@H](C)CO)C[C@H]2C)cc1	-3	12	-5.2	i
O=C(Nc1ccccc1)N1CCCCN2[C@H](CO)[C@H](c3ccc(C#Cc4ccccc4)cc3)[C@@H]2C1	-1	-1	4.3	i
C[C@@H]1CCCCO[C@H](CN(C)S(=O)(=O)c2cccs2)[C@H](C)CN([C@@H](C)CO)C(=O)c2cc(NC(=O)CCC(F)(F)F)ccc2O1	-5	-5	0.7	i
O=C(C1CCOCC1)N1CC[C@@H]2[C@H](CO)Nc3ccc(-c4cccc(F)c4)cc3[C@@H]21	-6	2	-1.3	i
CCCNC(=O)N1CC2(CCN(S(=O)(=O)CC)CC2)c2c([nH]c3cc(OC)ccc23)[C@H]1CO	5	11	-1.4	i
C[C@H]1CCCCO[C@H](CN(C)Cc2ccc(C(F)(F)F)cc2)[C@@H](C)CN([C@@H](C)CO)C(=O)c2cc(NC(=O)CCC(F)(F)F)ccc2O1	2	-14	8.9	i
OC[C@@H]1[C@@H](c2ccccc2)C2(CN(Cc3ccccn3)C2)N1Cc1cncnc1	3	12	-0.7	i
C[C@H](CO)N1C[C@H](C)[C@@H](CN(C)Cc2ccc3c(c2)OCO3)Oc2c(NC(=O)NC3CCCCC3)cccc2C1=O	-15	-22	0.2	i
C[C@@H]1CN([C@@H](C)CO)C(=O)Cc2cc(NC(=O)NC3CCCCC3)ccc2O[C@H]1CN(C)Cc1ccccc1	4	-6	1.9	i
C[C@@H]1CN([C@H](C)CO)C(=O)c2cccc(NC(=O)C3CCCCC3)c2O[C@@H]1CN(C)Cc1ccc(C(=O)Nc2ccccc2N)cc1	-1	0	1.9	i
O=C(C[C@@H]1C[C@H]2c3cc(NC(=O)CC4CC4)ccc3O[C@H]2[C@H](CO)O1)NCC(F)(F)F	2	9	-2.3	i
COc1ccc(CN(C)C[C@@H]2OCCCC[C@H](C)Oc3ccc(NC(=O)Nc4ccc5c(c4)OCO5)cc3C(=O)N([C@H](C)CO)C[C@@H]2C)cc1	-23	-43	30	i
COc1ccc(S(=O)(=O)N(C)C[C@H]2Oc3c(NC(=O)c4cc(C)nn4C)cccc3C(=O)N([C@@H](C)CO)C[C@@H]2C)cc1	-2	14	1.1	i
COc1ccc2c3c(n(C)c2c1)[C@H](CO)N(C(=O)Nc1ccc(F)cc1)CC31CN(C(=O)NC2CCCC2)C1	-2	-7	-0.6	i
CO[C@@H]1CN(C)C(=O)c2cc(NS(C)(=O)=O)ccc2OC[C@H](C)N(C)C[C@H]1C	2	1	-2.5	i
COc1ccc(CN(C)C[C@H]2Oc3ccc(NC(=O)Nc4cccc5ccccc45)cc3C(=O)N([C@@H](C)CO)C[C@@H]2C)cc1	0	-7	6.8	i
CC(=O)Nc1ccc2c(c1)C(=O)N(C)[C@H]1CC[C@H](CC(=O)Nc3ccc(Cl)cc3)O[C@@H]1CO2	-6	-14	1.2	i
COCC#Cc1cnc2c(c1)C(=O)N([C@@H](C)CO)C[C@@H](C)[C@H](CN(C)S(=O)(=O)c1ccccc1)O2	-2	8	-1.1	i

This is a subset; the hit share may differ from the screen's.
